GLS inhibitor – glutaminase GLS (human) inhibition; O94925; GLS enzymatic activity, qHTS titration; Potency, µM (titrated, usually from 45.5 µM), for inactives: at the top dose activity change, negative = inhibition, hits mostly inhibitors; 410,000 compounds, 0.21% hits; AID 624170; also: potency is read from the fitted curve at half-maximal effect; % is scaled to controls: 0 for no effect and ±100 for the full control effect
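hKGA in 45 mM KH2PO4 (pH 8.2), 0.02% Tween-20 with compound, then 1mM L-Glutamine (stock as added) plus glutamate oxidase/HRP/Amplex red coupling mix. Fluorescence read initially and after 30 min at RT; signal change reflects glutamate formation.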
Tb PGK inh – blocks T. brucei phosphoglycerate kinase; PGK/GAPDH coupled, Kinase-Glo luminescence, 60 min; Potency, µM (series often up to 57.5 µM), for the others: at the highest dose activity change, negative = inhibition, usual class: inhibitors; 380,000 compounds, 0.043% hits; AID 602233; also: potency is read from the fitted curve at half-maximal effect; % is scaled to controls: 0 for no effect and ±100 for the full control effect; nearly all actives have a fitted effect of over 60% in size
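Recombinant glycosomal PGK reaction used 1,3-bisphosphoglycerate generated in-well by GAPDH (100nM final) in 100mM TEA pH 7.6, 5mM MgCl2, 0.01% Tween-20. After 60 minutes at room temperature, ATP was read by Kinase-Glo Plus luminescence end-point.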
ERG Ets-DNA blk – ERG Ets/DNA interaction inhibition. AID 624246. fluorescence polarization, His-ERG Ets domain / labelled DNA. 370,000 compounds, 0.028% hits. Potency, µM (top dose mostly 76.9 µM), for the others: at the top dose FP activity, negative = inhibition, actives largely listed as inhibitors; active = well fitted inhibition curve with a large enough effect in the polarisation, with a control signal flat; inconclusive = small, poorly fitted or top-dose-only effect, or effect the other way, or a change in a side signal; inactive = no such curve, though single readings can be large or run the other way; the % refers to the polarisation;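 also: polarization taken with two DNA probes labelled with fluorescein and Texas red; potency is read from the fitted curve at half-maximal effect; % of control where 0% means no effect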
Target sequence (P11308 whole entry, looked up, the tested form may be a part): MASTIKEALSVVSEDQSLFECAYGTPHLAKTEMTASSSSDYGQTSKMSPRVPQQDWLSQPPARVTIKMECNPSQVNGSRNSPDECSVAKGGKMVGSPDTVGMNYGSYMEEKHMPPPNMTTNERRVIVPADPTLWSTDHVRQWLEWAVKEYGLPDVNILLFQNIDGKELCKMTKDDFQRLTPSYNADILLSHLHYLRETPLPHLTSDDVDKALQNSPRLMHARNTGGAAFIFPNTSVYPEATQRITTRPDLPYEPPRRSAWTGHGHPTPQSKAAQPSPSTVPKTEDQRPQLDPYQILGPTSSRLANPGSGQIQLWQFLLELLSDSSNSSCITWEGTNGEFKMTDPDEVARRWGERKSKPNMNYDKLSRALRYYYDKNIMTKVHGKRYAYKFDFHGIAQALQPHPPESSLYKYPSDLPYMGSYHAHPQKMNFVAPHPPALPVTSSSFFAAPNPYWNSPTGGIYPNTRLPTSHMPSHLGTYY
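His-tagged ERG Ets domain (1 uM in the protein solution; 300mM KCl, 50mM Tris-HCl, 1mM EDTA, 1mM DTT, pH 7.5) received compound, then a probe mix of 5 nM fluorescein-DNA and 100nM Texas-615-DNA. Fluorescence polarization was read for both dyes.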
Pin1 inhibitor – human Pin1 inhibition; Q13526; Pin1 FP peptide displacement, HiFluor488, 10 min; Potency, µM (titrated, usually from 115 µM), for the others: top-dose activity, negative = inhibition, hits mostly inhibitors; 390,000 compounds, 0.009% hits; AID 504891; active = well fitted inhibition curve with a large enough effect in the polarisation, with a control signal flat, not every such curve was filed as active; inconclusive = small, poorly fitted or top-dose-only effect, or effect the other way, or a change in a side signal; inactive = no such curve, though single readings can be large or run the other way; the % refers to the polarisation; also: potency is read from the fitted curve at half-maximal effect; % is scaled to controls: 0 for no effect and ±100 for the full control effect
PI4K2A block – inhibitors of human PI4K2A | purified PI4K2A, ADP-Glo luminescence, 1 h; hits give low values | activity change, negative = inhibition, % at 76.9 µM | 420,000 compounds, 0.13% hits; in the data active = activity change below about -50%; inconclusive = mostly about -30% to -49%;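 also: -100% = wells without enzyme as full effect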
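PI4K2A activity was measured by ADP-Glo luminescence: enzyme (4 ug/mL stock) and phosphatidylinositol (1.2 mM stock) in Tris pH 7.5/MgCl2/EGTA/Triton X-100 buffer were reacted with ATP (300 microM stock) for one hour at ambient temperature.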
Active calls of the source: *; i = inactive; ? = inconclusive; · = not tested or not shown; & = joins results of further samples; [ ] = dose if it differs, or a comment. Unless noted, calls follow the shape of the dose curve; as a rule, active = well fitted curve in the direction sought with a large enough effect; inconclusive = small, poorly fitted or top-dose-only effect, or another doubt; inactive = no such curve, though single readings can be large; an effect the other way counts as inactive or inconclusive.

SMILES	GLS inhibitor	Tb PGK inh	ERG Ets-DNA blk	Pin1 inhibitor	PI4K2A block
O=C1C2CCCN2C(c2cccs2)N1c1ccc(Cl)cc1 (stereo unspecified)	6.4%	i	4.8%	8.1%	4.1
CCOc1cc2c(cc1OCC)-n1cccc1C(c1ccc(OC(F)F)cc1)NC2 (stereo unspecified)	5.3%	-2.5%	17.1%	-1.1%	-15.8
O=C(Cc1ccccc1)N1CCN(Cc2ccccn2)CC1	0.8%	-7.4%	-10.2%	-6.2%	1.3
O=C(NCc1ccco1)c1ccc(Cn2c(=O)c3ccccc3n(Cc3cccc(F)c3)c2=O)cc1	-3.1%	6.6%	-0.2%	34.4%[activator]	4.1
Cc1nc2ccc(Cl)cc2c(-c2ccccc2)c1C(=O)O	0.3%	-8.3%	33.6%[activator]	-5.1%	-10.2
CCC12CN3CC(CC)(CN(C1)C3c1ccccn1)C2=O (stereo unspecified)	3.6%	-6.2%	-0.8%	-0.4%	1.4
CC(C)C12CN3CC(C(C)C)(CN(C1)C3c1ccccn1)C2=O (stereo unspecified)	0.9%	-3.4%	1.5%	-6.6%	1.6
O=[N+]([O-])c1cc(F)c(N2CCCCC2)cc1Br	7.0%	i	-7.2%	-0.5%	-0.8
O=C(COc1ccc(Br)cc1)N1CCN(Cc2ccncc2)CC1	1.0%	-2.0%	1.0%	?	1.8
CC(C)OC1CCCC(O)C1CC(=O)O (stereo unspecified)	-0.4%	2.2%	-0.4%	-1.4%	-3.2
COC(=O)C1=C(C)NC(C)=C(C(=O)OC)C1c1ccccc1[N+](=O)[O-]	28.3%&11.8%	-2.2%	5.2%	11.5%	2.8&3.5&1.8
FC(F)(F)c1cccc(CN2CCCCCC2)c1	0.6%	-5.5%	1.2%	2.9%	6.1
O=C(C1CCN(Cc2ccccc2)CC1)N1CCCC1	0.3%	i	7.8%	-3.5%	-11.1
CCN(CC)CCNCC(=O)Nc1ccc(Cl)cc1C(=O)c1ccccc1	13.1%	-6.8%	4.6%	-11.4%	6.8
Cc1ccc(OCC(=O)N2CCN(Cc3ccc4c(c3)OCO4)CC2)cc1	1.4%	-1.9%	14.4%	-4.4%	2.1
Cn1c(=O)c2[nH]cnc2n(C)c1=O	-12.4%&9.1%	-7.5%	?	-0.2%	1.5&3.3&4.1
CC(C)=CCCC(C)CN(C)CCc1ccccn1 (stereo unspecified)	4.3%	-2.9%	-6.1%	-3.6%	-1.9
c1cc2n(c1)-c1c(ccc3c1OCO3)CNC2c1ccc2c(c1)OCO2 (stereo unspecified)	5.0%	-8.5%	-14.8%	0.4%	11.4
O=C(COc1ccccc1)N1CCN(CC2CC=CCC2)CC1 (stereo unspecified)	-8.6%	-8.8%	7.1%	-6.4%	0.4
Cc1ccc(OCC(=O)N2CCN(C3CCC(c4ccccc4)CC3)CC2)cc1 (stereo unspecified)	-3.4%	-1.8%	-1.8%	?	3.9
OCCN(CCO)CCO	3.0%	·	·	·	·

Among those listed so far, these have a halogen.
SMILES	GLS inhibitor	Tb PGK inh	ERG Ets-DNA blk	Pin1 inhibitor	PI4K2A block
O=C1C2CCCN2C(c2cccs2)N1c1ccc(Cl)cc1 (stereo unspecified)	6.4%	i	4.8%	8.1%	4.1
CCOc1cc2c(cc1OCC)-n1cccc1C(c1ccc(OC(F)F)cc1)NC2 (stereo unspecified)	5.3%	-2.5%	17.1%	-1.1%	-15.8
O=C(NCc1ccco1)c1ccc(Cn2c(=O)c3ccccc3n(Cc3cccc(F)c3)c2=O)cc1	-3.1%	6.6%	-0.2%	34.4%[activator]	4.1
Cc1nc2ccc(Cl)cc2c(-c2ccccc2)c1C(=O)O	0.3%	-8.3%	33.6%[activator]	-5.1%	-10.2
O=[N+]([O-])c1cc(F)c(N2CCCCC2)cc1Br	7.0%	i	-7.2%	-0.5%	-0.8
O=C(COc1ccc(Br)cc1)N1CCN(Cc2ccncc2)CC1	1.0%	-2.0%	1.0%	?	1.8
FC(F)(F)c1cccc(CN2CCCCCC2)c1	0.6%	-5.5%	1.2%	2.9%	6.1
CCN(CC)CCNCC(=O)Nc1ccc(Cl)cc1C(=O)c1ccccc1	13.1%	-6.8%	4.6%	-11.4%	6.8

Source: PubChem

An excerpt, so the mix of outcomes need not match the whole.
